MITF inhib = inhibitors of MITF | TRPM1 promoter luciferase, luminescence, 24 h | inhibition, % (no concentration beside the values) | 37,000 tested, 0.28% active;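 active = most replicates at 85% or more, or half of them and the mean; inconclusive = half reach 85% but not the mean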;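 also: human melanocyte line stably carrying TRPM1 promoter luciferase reporter; 0% = vehicle wells and 100% = a positive control; the first replicate is given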
YB-1 expr inh = YB-1 expression inhibition; delta delta Cp (YB-1 minus CDIP) (concentration not given with the values); U2OS, qRT-PCR YB-1 vs CDIP delta delta Cp, 16 h; stronger effect = higher value; zero = DMSO, each unit about twofold; 30,000 tested, 0.37% active;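 active = delta delta Cp rounded down to an integer at or above 3, about 3 SD of DMSO wells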;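 also: higher means less YB-1 transcript or more CDIP transcript relative to DMSO; stock transfer was 100 nL into about 100 µL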
PD-1 reversal = activators reversing PD-1 mediated T-cell inhibition | primary human CD4 T cells, PD-L1 beads, CellTiter-Glo 96 h | activation, % (no concentration beside the values) | 29,000 tested, under 10 active;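 active = replicate mean of 50% or more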;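 also: 0% = median vehicle wells and 100% = positive control; 100 nL library stock added to about 50 µL; numbers are from one replicate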
Shh pathway inh = blocks Sonic Hedgehog signaling. Shh-LIGHT2 Gli-luciferase reporter, 30 h. inhibition, % (test concentration not listed). 22,000 tested, 2.1% active;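 active = replicate mean of 65% or more; inconclusive = mean lower but half the replicates past it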;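 also: pathway switched on by Shh-conditioned medium diluted 1 in 25 in low serum; 100 nL library stock added to about 40 µL; 0% = median of neutral wells and 100% = positive control level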
Starred values were filed as active, the others as inactive; u = inconclusive; x = not tested or not shown.

SMILES	MITF inhib	YB-1 expr inh	PD-1 reversal	Shh pathway inh
Cc1ccc(-c2noc(CSc3nnc(-c4cccs4)n3C)n2)cc1	-12.5	x	0.5	x
COc1ccc(S(=O)(=O)Nc2cccc3c2O[C@@H](CN(C)Cc2ccc(C(F)(F)F)cc2)[C@@H](C)CN([C@H](C)CO)C3=O)cc1	26.0	0.848	-3.2	-5.5
O=C(Cn1c(=O)oc2ccccc21)Nc1cccc([N+](=O)[O-])c1	6.6	x	1.6	x
Cc1ccc(-c2nc3ccccc3o2)cc1NC(=O)CN1C(=O)c2ccccc2C1=O	-18.9	x	2.8	x
COc1ccc(Cl)cc1NC(=S)NCCCn1nc(C)c(Br)c1C	15.5	x	-2.5	x
CC(C)(C)c1cc(C(C)(C)C)c2oc(C(=O)O)cc(=O)c2c1	-3.3	0.111	0.1	2.9
Cc1ccc(C)c(NC(=O)CCn2cnc3ccccc3c2=O)c1	-4.0	x	0.7	x
C[C@@H]1CN([C@H](C)CO)C(=O)c2cccc(NC(=O)c3cnccn3)c2O[C@H]1CN(C)S(=O)(=O)c1cccs1	-8.5	0.159	0.9	28.1
COc1ccc(S(=O)(=O)Nc2cccc3c2O[C@@H](CN(C)S(=O)(=O)c2ccc(F)cc2)[C@@H](C)CN([C@H](C)CO)C3=O)cc1	9.7	-0.161	0.1	17.5
CCOc1ccc(N2C(=O)CC(Sc3nc(O)c(CC)c(=O)[nH]3)C2=O)cc1 (stereo unspecified)	-6.8	x	1.0	x
Cc1noc(C)c1S(=O)(=O)N(C)C[C@H]1Oc2ccc(NC(=O)Nc3ccc(F)cc3)cc2CC(=O)N([C@H](C)CO)C[C@H]1C	-9.6	0.464	-0.1	-4.3
COc1ccc(S(=O)(=O)Nc2cccc3c2O[C@H](CN(C)CC2CC2)[C@@H](C)CN([C@@H](C)CO)C3=O)cc1	5.2	0.048	2.8	-0.7
COc1cc(O)c(C)c(O)c1	-9.5	0.141	x	-26.9
C[C@@H]1CN([C@@H](C)CO)C(=O)c2cc(NC(=O)Nc3ccccc3)ccc2O[C@@H]1CN(C)C(=O)Nc1ccc(C(F)(F)F)cc1	26.7	0.246	-3.1	-16.5
C[C@@H]1CCCCO[C@@H](CN(C)Cc2ccccc2)[C@@H](C)CN([C@H](C)CO)C(=O)c2cc(NC(=O)Nc3ccc4c(c3)OCO4)ccc2O1	4.0	0.116	x	-21.1
COc1cc(NC(=O)CN2c3cccc4cccc(c34)S2(=O)=O)cc(OC)c1OC	56.7	x	-0.7	x
O=C(COc1ccc2ccccc2c1)Nc1ccccc1-c1nc2ccccc2s1	10.0	x	-1.7	x
COc1ccc(S(=O)(=O)N(CC(N)=O)C2CCCCC2)cc1OC	4.8	x	1.5	x
COc1ccc(CN(C)C[C@H]2Oc3ccc(NC(=O)Cc4ccccc4)cc3C(=O)N([C@H](C)CO)C[C@H]2C)cc1	-1.4	-0.122	0.5	-9.4
C[C@H]1CN([C@@H](C)CO)C(=O)c2cc(NC(=O)CCC(F)(F)F)ccc2O[C@H]1CN(C)Cc1ccc(C(=O)O)cc1	0.2	-0.0494	-0.1	2.6
C[C@@H]1CN([C@H](C)CO)C(=O)Cc2cc(NC(=O)CCN3CCOCC3)ccc2O[C@@H]1CN(C)S(=O)(=O)c1ccc(F)cc1	1.6	-0.132	2.1	-25.3
O=C(O)[C@H]1O[C@@H](Oc2cc(O)c3c(=O)c(-c4ccc(O)cc4)coc3c2)[C@H](O)[C@@H](O)[C@@H]1O	0.1	-0.84	0.1	-27.0
Cc1ccc(NS(=O)(=O)c2cc(C(=O)Nc3cccc(N(C)S(C)(=O)=O)c3)ccc2C)c(C)c1	27.1	x	-2.7	x
C[C@H]1CN([C@@H](C)CO)C(=O)c2cc(NC(=O)C3CCCCC3)ccc2O[C@H]1CN(C)C	-13.4	0.551	-1.2	x
COc1ccc(N2C(=O)CC(SCC(=O)Nc3ccccc3F)C2=O)cc1 (stereo unspecified)	-13.5	x	1.7	x
C[C@@H]1CN([C@H](C)CO)C(=O)c2cccc(NS(=O)(=O)c3cn(C)cn3)c2O[C@@H]1CN(C)Cc1ccc(C(=O)O)cc1	-0.7	-0.171	1.5	15.1
C[C@H]1CN([C@@H](C)CO)C(=O)c2cccc(NC(=O)c3ccncc3)c2O[C@H]1CN(C)S(=O)(=O)c1cn(C)cn1	0.2	0.112	2.4	22.6
C=CCNC(=O)CC1CCCCC1	-2.6	-0.0718	0.0	2.6
C[C@H]1CN([C@@H](C)CO)C(=O)c2cccc(NS(=O)(=O)c3ccccc3)c2O[C@@H]1CN(C)Cc1ccc(Cl)c(Cl)c1	-9.9	-0.0917	0.1	1.9
COc1ccc(OC)c(NC(=O)CN(c2cc(C(F)(F)F)ccc2Cl)S(C)(=O)=O)c1	10.0	x	-0.9	x
CCn1c(SCC(=O)Nc2cccc(C)c2C)nnc1-c1cccs1	-4.0	x	-0.5	x
C[C@@H]1CCCCO[C@@H](CN(C)C(=O)Nc2cccc3ccccc23)[C@@H](C)CN([C@H](C)CO)C(=O)c2cc(NS(=O)(=O)c3ccc(Cl)cc3)ccc2O1	23.8	-0.298	x	-3.0
C[C@@H]1CN([C@H](C)CO)C(=O)Cc2cc(NC(=O)Cc3cn(C)c4ccccc34)ccc2O[C@H]1CN(C)S(=O)(=O)c1cn(C)cn1	4.1	0.394	1.1	-1.6
C[C@@H]1CN([C@H](C)CO)C(=O)c2cccc(NC(=O)CCCCCC(=O)Nc3ccccc3N)c2O[C@@H]1CN(C)CC1CCCCC1	-0.6	-0.083	1.3	x
C[C@@H]1CN([C@@H](C)CO)C(=O)c2cc(NS(=O)(=O)c3ccccc3)ccc2O[C@H]1CN(C)Cc1ccc(Oc2ccccc2)cc1	25.6	-0.00817	-1.6	x
COc1cc(OC)c(NC(=O)CCCN2C(=O)c3ccccc3C2=O)cc1Cl	3.0	x	1.3	x
C[C@@H]1CN([C@@H](C)CO)C(=O)c2cc(N(C)C)ccc2O[C@@H]1CN(C)S(=O)(=O)c1ccc(F)cc1	4.2	-0.179	0.7	2.3
C[C@@H]1CCCCO[C@H](CN(C)C(=O)Nc2ccc3c(c2)OCO3)[C@@H](C)CN([C@H](C)CO)C(=O)c2cc(NC(=O)Nc3ccc(C(F)(F)F)cc3)ccc2O1	12.1	-0.167	-2.3	37.0
CCOC(=O)[C@H](CCc1ccccc1)N[C@@H](C)C(=O)N1C(C(=O)O)C[C@@H]2CCC[C@@H]21 (stereo partly specified)	3.4	-0.011	x	-27.9
C[C@H]1CN([C@@H](C)CO)C(=O)c2cc(NC(=O)CCC(F)(F)F)ccc2O[C@H]1CN(C)Cc1ccc(-c2ccccc2)cc1	25.9	-0.0714	-0.2	-34.1
C=C(C)C1Cc2cc(C(C)=O)ccc2O1 (stereo unspecified)	x	0.509	x	-16.8
C[C@H]1CN([C@@H](C)CO)C(=O)c2cccc(NC(=O)c3cnccn3)c2O[C@H]1CN(C)CC1CC1	-11.9	-0.677	1.7	-29.6
CC(Sc1nc2ccccc2[nH]1)C(=O)Nc1ccc(S(N)(=O)=O)cc1 (stereo unspecified)	0.2	x	3.4	x
C[C@@H]1CN([C@H](C)CO)C(=O)c2cc(NC(=O)CCC(F)(F)F)ccc2O[C@H]1CN(C)S(=O)(=O)c1ccccc1	-11.5	-0.0894	-0.4	13.3
C[C@@H]1CN([C@@H](C)CO)C(=O)c2cccc(NC(=O)Nc3ccc(C(F)(F)F)cc3)c2O[C@H]1CN(C)S(=O)(=O)c1ccc(F)cc1	6.0	-0.196	0.2	-16.5
C[C@@H]1CN([C@@H](C)CO)C(=O)c2cccc(NC(=O)Nc3ccc(F)cc3)c2O[C@@H]1CN(C)C(=O)Nc1cccc2ccccc12	9.1	-0.364	-3.9	u
CCCCCCC[C@@H](O)CC(=O)CCc1ccc(O)c(OC)c1	2.0	-0.252	1.1	14.3
C[C@@H]1CN([C@@H](C)CO)C(=O)c2cc(NC(=O)Cc3ccccc3)ccc2O[C@H]1CN(C)Cc1ccc(-c2ccccc2)cc1	5.6	0.478	-0.6	31.7
COc1ccc(NC(=O)N(C)C[C@@H]2Oc3c(NS(=O)(=O)c4ccc(Cl)cc4)cccc3C(=O)N([C@@H](C)CO)C[C@@H]2C)cc1	4.2	-0.239	-2.4	-21.5
Cc1noc(C)c1S(=O)(=O)Nc1ccc2c(c1)C(=O)N([C@H](C)CO)C[C@H](C)[C@H](CN(C)Cc1ccncc1)O2	1.1	0.0947	0.4	x
Cc1noc(C)c1NC(=O)Nc1ccc2c(c1)C(=O)N([C@H](C)CO)C[C@H](C)[C@H](CN(C)S(=O)(=O)c1ccccc1)OCCCC[C@@H](C)O2	3.1	-0.547	1.2	-20.1
CN(C)CCNc1cnn(-c2ccccc2)c(=O)c1Cl	9.2	0.255	0.5	0.0
COC(=O)c1ccccc1NC(=O)COc1ccc(C(C)(C)C)cc1Br	-12.2	x	-0.8	x
CC(C)NC(=O)N(C)C[C@H]1Oc2c(NC(=O)c3nc4ccccc4s3)cccc2C(=O)N([C@@H](C)CO)C[C@H]1C	-1.4	-0.305	0.1	11.4
COc1ccc(S(=O)(=O)Nc2ccc3c(c2)C(=O)N([C@H](C)CO)C[C@H](C)[C@H](CN(C)C(=O)Nc2ccccc2)OCCCC[C@@H](C)O3)cc1	1.8	-0.0862	0.8	15.0
C[C@@H]1CN([C@H](C)CO)C(=O)c2cccc(NS(=O)(=O)c3ccc(F)cc3)c2O[C@H]1CN(C)C(=O)Nc1cccc2ccccc12	-5.7	0.0059	2.7	15.2
COc1ccc(S(=O)(=O)Nc2cccc3c2O[C@@H](CN(C)C(=O)NC2CCCCC2)[C@@H](C)CN([C@H](C)CO)C3=O)cc1	32.4	-0.627	-1.8	66.1*
C[C@@H]1CN([C@H](C)CO)C(=O)c2cc(NC(=O)Nc3ccc(C(F)(F)F)cc3)ccc2O[C@@H]1CN(C)C(=O)Nc1ccc(F)cc1	40.3	0.00873	-3.7	18.5
CC(C)NC(=O)Nc1cccc2c1O[C@@H](CN(C)Cc1ccc(C(F)(F)F)cc1)[C@@H](C)CN([C@H](C)CO)C2=O	12.8	0.217	-2.4	-37.1
C[C@@H]1CN([C@H](C)CO)C(=O)Cc2cc(NC(=O)CCN3CCOCC3)ccc2O[C@@H]1CN(C)Cc1ccc(-c2ccccc2)cc1	-3.3	0.215	x	24.9
Later entries
SMILES	MITF inhib	YB-1 expr inh	PD-1 reversal	Shh pathway inh
CC1(C)CC(=O)C2=C(C1)N(CCc1ccccc1)C(=O)C2(NC(=O)c1cccnc1)C(F)(F)F (stereo unspecified)	-5.2	x	-0.1	x
NC(N)=NC(=O)c1nc(Cl)c(N)nc1N	-8.3	0.237	x	-11.8
C[C@H](CO)N1C[C@H](C)[C@H](CN(C)Cc2ccc(-c3ccccc3)cc2)Oc2c(NC(=O)Nc3ccc(C(F)(F)F)cc3)cccc2C1=O	-8.3	0.575	-2.0	-68.0
CNC[C@H]1OCCCC[C@@H](C)Oc2ccc(NC(=O)Nc3ccc(C(F)(F)F)cc3)cc2C(=O)N([C@H](C)CO)C[C@@H]1C	-9.2	-0.0122	0.3	-28.1
COc1ccc(S(=O)(=O)N(C)CC(=O)Nc2cccc(SC)c2)cc1Cl	12.2	x	1.8	x
C[C@H]1CN([C@@H](C)CO)C(=O)c2cccc(NC(=O)C3CCOCC3)c2O[C@H]1CN(C)Cc1ccc(Cl)c(Cl)c1	-5.1	-0.483	x	15.2
Cc1ccc(N(CC(=O)Nc2ccc(F)cc2)S(C)(=O)=O)cc1	-28.3	x	0.1	x
CCNC(=O)c1ccc(Cl)s1	4.6	-0.201	0.7	-7.2
C[C@@H]1CN([C@@H](C)CO)C(=O)c2cc(NC(=O)Nc3ccccc3)ccc2O[C@H]1CN(C)CC1CCCCC1	-9.5	0.476	x	-30.8
COc1ccc2[nH]c(=O)c(CN(C)C(=O)c3cccc(Cl)c3)cc2c1	-25.6	x	0.3	x
C[C@H](CO)N1C[C@H](C)[C@@H](CN(C)C)Oc2ccc(NC(=O)Cc3cn(C)c4ccccc34)cc2C1=O	9.1	-0.5	0.4	10.9
C=C1CCC[C@]2(C)CC[C@@](O)(C(=C)C(=O)O)C[C@@H]12	-4.2	-0.407	1.4	-0.5
C[C@@H]1CN([C@H](C)CO)C(=O)c2cc(NS(=O)(=O)c3ccc(F)cc3)ccc2O[C@H]1CN(C)Cc1ccc(-c2ccccc2)cc1	1.9	-1.17	1.9	x
CCOC(=O)c1cc(-c2ccccc2)sc1NC(=S)Nc1cnccn1	-9.2	x	0.5	x

A portion of the results above, for reference:
SMILES	MITF inhib	YB-1 expr inh	PD-1 reversal	Shh pathway inh
CC1(C)CC(=O)C2=C(C1)N(CCc1ccccc1)C(=O)C2(NC(=O)c1cccnc1)C(F)(F)F (stereo unspecified)	-5.2	x	-0.1	x
NC(N)=NC(=O)c1nc(Cl)c(N)nc1N	-8.3	0.237	x	-11.8
C[C@H](CO)N1C[C@H](C)[C@H](CN(C)Cc2ccc(-c3ccccc3)cc2)Oc2c(NC(=O)Nc3ccc(C(F)(F)F)cc3)cccc2C1=O	-8.3	0.575	-2.0	-68.0
CNC[C@H]1OCCCC[C@@H](C)Oc2ccc(NC(=O)Nc3ccc(C(F)(F)F)cc3)cc2C(=O)N([C@H](C)CO)C[C@@H]1C	-9.2	-0.0122	0.3	-28.1
COc1ccc(S(=O)(=O)N(C)CC(=O)Nc2cccc(SC)c2)cc1Cl	12.2	x	1.8	x

This is a subset, so the mix of outcomes need not match the whole.
